Assay outcomes (PubChem BioAssay)
PABP FP inh: PABP-poly(A) binding inhibition; P11940; PABP-poly(A) RNA binding, fluorescence polarization; inhibition, % at 35 µM; hit rate 1% among 290,000;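 active means 50% or more with normal probe brightness, or confirmed in later tests; inconclusive means above 50% with abnormal brightness, or retests that disagree; inactive means below 50% or failed in later tests; about a fifth of its hits are not listed in these tables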;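 further: calls also rest on retests at 20 µM and on dose response follow-up; controls were probe without protein and protein plus probe with vehicle; some compounds called inactive have numbers as strong as hits; many hits fall short of the cut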
eIF4H inh: inhibitors of RNA binding by human eIF4H. inhibition, % at 35 µM. hit rate 0.94% among 290,000. eIF4H fluorescence polarization binding assay;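 active means 50% or more with normal probe brightness, or confirmed in later tests; inconclusive means above 50% with abnormal brightness, or retests that disagree; inactive means below 50% or failed in later tests; about a fifth of its hits are not listed in these tables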;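 further: calls also rest on retests at 20 µM and on dose response follow-up; 0% = protein and probe with vehicle and 100% = probe without protein; strong numbers were not always called active; many hits fall short of the cut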
CSC inhib: cancer stem cell inhibition | AID 2717 | inhibition, % at 7.5 µM | hit rate 1.1% among 300,000 | cancer stem cell-like cells viability, luminescence;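 active means mean at 75% or more and at least half the replicates too; inconclusive means mean and replicates disagree; tested in HMLE shEcad cells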;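 further: 0% = median of negative and 100% = median of positive control wells; the first replicate is given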
Yeast UUG start: yeast start codon fidelity modulation; activity score, % at 18.7 µM; AID 602363; hit rate 0.13% among 350,000; S. cerevisiae UUG-firefly luciferase reporter, luminescence/redox ratio;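 active means replicate mean at a twofold rise or more, about +100% in these data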;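 further: firefly luciferase made from a UUG start codon reports start codon fidelity; reporter light over untreated wells divided by growth signal over untreated wells; some hits fall short of that in this replicate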
MT1-MMP act inh: blocks activation of human MT1-MMP; hit rate 0.061% among 360,000; P50281; AID 651647; HT1080 RFP-PRO-GFP cells, GFP/RFP ratio fluorescence, overnight; percent of plate control window, DMSO zero; GFP/RFP ratio change, % at 20 µM;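 active means GFP/RFP ratio change of at least 30% with cell ATP level not reduced by more than half and red fluorescence within 50% of control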; further: strong numbers were not always called active
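Assay system: HT1080 RFP-PRO-GFP cells | Dosing: 20 µM single dose, 1% DMSO | Incubation: Cells overnight before dosing, compound overnight, 37 °C, 5% CO2 | Evaluation: GFP/RFP fluorescence ratio | Control set: DMSO-only wells and HT1080 RFP-L50D-GFP cell wells as references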
Env fusion inh: blocks HIV Env-driven cell-cell fusion; hit rate 1.1% among 360,000; inhibition, % at 12.3 µM; HeLa-JRFL Env/CEM21 cell fusion, luciferase;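 active means mean replicate inhibition score of at least 50 and every replicate individually at or above 50; inconclusive means only one of the two criteria met; inactive means mean below 50 and not all replicates reaching 50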;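 further: 0% = plate neutral controls and 100% = maraviroc near 300 nM; one replicate is shown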
Rce1 inhib: yeast Ras-converting enzyme inhibition; yeast membranes, quenched prenylated peptide cleavage fluorescence; calls only; hit rate 0.27% among 290,000; AID 2563;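 active means fall in fluorescence gain of 50% or more versus controls, with final raw signal at or below 3038400; inconclusive means same 50% fall but final raw signal above 3038400; inactive means fall in fluorescence gain under 50%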;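 further: plate controls were neutral control wells for no effect and wells lacking membranes for full effect; tested at 10 µM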
Target sequence (Q03530 whole entry, looked up): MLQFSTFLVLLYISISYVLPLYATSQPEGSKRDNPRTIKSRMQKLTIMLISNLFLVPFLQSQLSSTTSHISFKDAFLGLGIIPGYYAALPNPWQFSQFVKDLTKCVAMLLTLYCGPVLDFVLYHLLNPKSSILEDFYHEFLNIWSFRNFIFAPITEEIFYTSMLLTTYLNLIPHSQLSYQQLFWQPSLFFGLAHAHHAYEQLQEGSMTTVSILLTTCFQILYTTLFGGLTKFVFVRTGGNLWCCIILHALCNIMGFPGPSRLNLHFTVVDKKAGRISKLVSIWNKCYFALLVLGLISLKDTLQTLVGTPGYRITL
eIF4H inh retest: recorded beside eIF4H inh, whose call it bears; inhibition, %; compound at 20 µM; confirmation average;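 mean of two retest wells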
PABP FP inh retest: also measured in PABP FP inh; calls as there; inhibition, %; compound at 20 µM; confirmation repeats;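 mean of two retest wells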
MT1-MMP act inh RFP: also measured in MT1-MMP act inh; calls as there; RFP signal change, %; measured here: RFP expression control read;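 0 = vehicle wells; hits needed this value within 50% of zero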
* hit, by the source's call; i = inactive; u = inconclusive; x = not tested or not shown.

SMILES	PABP FP inh	eIF4H inh	CSC inhib	Yeast UUG start	MT1-MMP act inh	MT1-MMP act inh RFP	Env fusion inh	Rce1 inhib	others
O=C(Nc1nc(-c2ccccn2)cs1)c1ccco1	12	86	1	x	3	3	22	i	eIF4H inh retest=-2;PABP FP inh retest=-3
CC(=O)c1cccc(NC(=O)C2CCN(S(=O)(=O)c3ccc(F)cc3)CC2)c1	-4	-3	-14	11	-3	-2	5	i
C/C(N)=C(/C#N)C(=O)COC(=O)CCCNC(=O)c1ccc(Cl)cc1	-4	16	-4	-12	-1	-3	7	i
Nc1nc(-c2ccc3c(c2)CCCC3)c(CC(=O)O)s1	-12	-13	-5	-16	-9	2	2	i
CCc1ccc(NC(=O)C(CC)Sc2nc3ccsc3c(=O)n2CCC(=O)O)cc1 (stereo not given)	8	1	-13	-10	-1	4	-14	i
S=c1[nH]nc(-c2ccco2)n1-c1ccc(Br)cc1	x	x	-16	-3	1	6	-15	i
CCC1(c2cccc(Cl)c2)NC(=O)N(Cc2cc(C(=O)OC)c(C)o2)C1=O (stereo not given)	1	-2	0	x	1	-6	-148	i
COc1cc2[nH]c3c(=O)n(CCN(C(C)C)C(C)C)cnc3c2cc1OC	-4	-1	28	-8	23	0	-26	i
CCC(Sc1nc(C)cc(=O)[nH]1)C(=O)Nc1nnc(C)s1 (stereo not given)	13	4	-10	-5	3	2	x	i
COc1cc(C(=O)NC(=S)N(C)Cc2ccccc2)cc(OC)c1OC	3	3	-10	-11	6	2	4	i
O=C(NCc1ccc2c(c1)OCO2)c1ccncc1	0	-6	-10	-17	4	1	-32	i
O=C(NCCCCc1ccccc1)C1CC(c2ccc(C(F)(F)F)cc2)=NO1 (stereo not given)	14	5	8	-5	6	5	10	i
CN(C=O)c1ccc(CSc2ccccc2)cc1	x	x	x	-11	-2	-3	-34	x
Cc1ccc(C(=O)NCC(=O)N2CCCN(C)CC2)cc1C	x	x	-21	1	3	1	-1	x
COc1ccc(N2CC(C(=O)N3CCN(C)CC3)CC2=O)cc1 (stereo not given)	-4	-5	-1	2	4	8	0	i
O=C(CO)N/N=C/c1cccc(Cl)c1Cl	4	7	-4	x	3	4	-92	i
C/C(CC(=O)Nc1ccc(Cl)c(Cl)c1)=N\NC(=O)C(=O)N1CCCCC1	0	-2	3	-17	2	3	-9	i
COc1ccc2oc(=O)cc(-c3cc4ccccc4o3)c2c1	-4	4	5	-20	-6	-7	-3	i
COc1ccc(C2=[N+]([O-])C(C)(C)N(O)C2(C)C)cc1	0	-11	-12	9	1	2	-7	i
CC1(C)CC(=O)C=C(c2ccc(I)cc2)C1	x	x	-1	-12	-3	-7	x	x
COCCCNS(=O)(=O)c1ccc(S(=O)(=O)N2CCCC2)cc1	8	6	-2	-5	-3	-2	-20	i
CC(=O)NC1=C(N(C)C2CCS(=O)(=O)C2)C(=O)c2ccccc2C1=O (stereo not given)	6	-4	5	9	2	5	14	i
C=CCN(c1ccc(C(=O)Nc2cc(C)cc(C)c2)cc1)S(C)(=O)=O	9	5	-2	x	4	1	20	i
COc1ccc(NC(=O)C2C3CC/C=C\CCC32)cc1 (stereo not given)	-4	-8	-1	-12	0	-4	-24	i
CCOC(=O)[C@@H]1[C@H]2COc3ccccc3[C@H]2N2C(=O)N(c3ccc(Br)cc3)C(=O)[C@]12C	x	x	-11	-15	0	0	-115	x
CCN(CC)C(=O)c1cc([N+](=O)[O-])cc2c1-c1ccc([N+](=O)[O-])cc1C2=C(C#N)C#N	8	7	40	2	-3	-5	-181	i
CCNC(=S)N1CCN(C(=O)c2ccco2)CC1	-6	1	9	-15	-1	2	-9	i
NC(=O)c1c(N)sc2c1CCCC2	u	u	8	-5	-6	2	-3	i
O=C1C2C3C=CC(CC3)C2C(=O)N1c1ccc2c(c1)OCO2 (stereo not given)	-10	-6	-8	x	0	7	x	i
Cc1ccc(OCc2cc(C(=O)N3CCN(c4ccccc4)CC3)no2)cc1C	-6	2	-4	-11	-2	-5	-69	x
CCc1ccc(NC2Nc3cc(C)nn3S2)cc1 (stereo not given)	-6	-5	-3	-36	3	0	-57	i
O=C(CSc1nc2ccccc2s1)Nc1cc(S(=O)(=O)N2CCOCC2)ccc1Cl	16	-5	-9	-12	-2	0	21	i
CCOC(=O)CCSc1nc2c(c(C(F)(F)F)c1C#N)CCC2	-13	-7	-14	x	1	0	x	i
CN(Cc1ccon1)Cc1cn(Cc2ccccc2)nc1-c1ccc2c(c1)OCO2	-6	4	-6	x	1	2	13	i
CC1(C)Cc2nc3sc4c(SCC(=O)NCc5ccco5)ncnc4c3cc2CO1	18	7	x	-60	-7	-18	x	i
CCOC(=O)c1c(C)[nH]c(C(=O)COC(=O)C2(C)CC2(Cl)Cl)c1C (stereo not given)	13	0	0	-6	-4	-2	-246	i
CN(CC(=O)N1CCc2ccccc2C1)c1ccccc1	-2	3	-8	3	3	-1	-10	i
Cc1nnc(NC(=O)CSc2n[nH]c(-c3ccccc3)n2)s1	0	7	-10	x	3	2	0	i
CCN(CC)C(=O)C1=C(C)N(Cc2ccc(C(C)(C)C)cc2)C(=O)C(CC(=O)NC2CCCCC2)C1 (stereo not given)	x	x	x	10	-2	-5	-66	x
O=C1NCCCCC1NS(=O)(=O)c1cccc2ccccc12 (stereo not given)	1	-6	x	-5	1	0	10	i
N#C/C(=C/c1ccc(C(=O)O)cc1)C(=O)Nc1ccccc1	1	-8	-9	x	2	3	0	i
Cc1cccc(OCC(=O)N/N=C2/SCC(=O)N2Cc2ccco2)c1	-5	8	1	x	0	0	-31	i
CCCN(C(=O)Cc1nc(N)n[nH]1)C1(C(=O)Nc2c(C)cccc2C)CCCCC1	0	-14	-10	-20	3	1	-31	i
COc1ccc(-c2cc(C(=O)Nc3cccnc3Cl)no2)cc1OC	5	-14	6	-7	5	2	3	i
COc1ccc(C(=O)Nc2ccnn2C2CCN(C(C)CSC)CC2)cc1 (stereo not given)	14	14	-7	-9	0	3	4	i
CCOc1ccc(C(=O)NCC(C)C)cc1	-6	-6	8	1	6	-4	-30	i
Cc1cccc(N2CCN(C(=S)NCCc3ccccc3)CC2)c1C	16	5	-4	-22	28	-5	-48	i
O=C(Nc1ccc(N2CCCCC2)cc1)c1ccc(F)cc1	-4	-2	-6	-10	-1	7	x	i

The last 2 compounds of the section above come first, to join the parts.
SMILES	PABP FP inh	eIF4H inh	CSC inhib	Yeast UUG start	MT1-MMP act inh	MT1-MMP act inh RFP	Env fusion inh	Rce1 inhib	others
Cc1cccc(N2CCN(C(=S)NCCc3ccccc3)CC2)c1C	16	5	-4	-22	28	-5	-48	i
O=C(Nc1ccc(N2CCCCC2)cc1)c1ccc(F)cc1	-4	-2	-6	-10	-1	7	x	i
O=[N+]([O-])c1cccc(/C([O-])=C(/C(=S)Nc2cccc3ccccc23)[n+]2ccccc2)c1	-5	-2	x	x	4	2	-6	i
COc1ccccc1CNC(=O)CN1C(=O)NC2(CCC(C)CC2)C1=O (stereo not given)	x	x	-8	-16	2	3	12	x
Cc1ccc(-c2cc3nn(-c4ccccc4)c(N)c3c(=O)o2)cc1	9	-6	44	-23	12	-8	-70	i
CC(Sc1nc(N2CCOCC2)nc(N2CCOCC2)n1)C(=O)Nc1ccccc1 (stereo not given)	-10	-3	-4	x	-6	-4	-57	i
O=C(O)C1C2C=CC(O2)C1C(=O)Nc1cccc(C(F)(F)F)c1 (stereo not given)	-3	-7	-1	-15	-5	0	-11	i
COc1cccc(N2CCN(C(=O)c3ccc(CS(=O)Cc4ccccc4Cl)o3)CC2)c1 (stereo not given)	8	7	-7	11	2	-2	-3	i
O=C(c1ccc(F)cc1)C1CCN(C(=O)c2ccccc2)CC1	-7	5	-2	-13	-1	0	36	i
Cc1ccc(-n2[nH]c(C)c(C=Nc3ccc(S(=O)(=O)Nc4nccs4)cc3)c2=O)cc1C	-15	2	-8	x	1	-1	x	i
Cc1cccc(C(=O)N2CCNC(=O)C2CC(=O)Nc2cccc(Cl)c2)c1 (stereo not given)	6	3	-6	-1	-3	-6	5	i
COc1ccc(-c2csc(-c3[nH]cnc3N)n2)cc1	-15	16	-7	x	-3	4	-8	i
CC(C)N(C(=O)CSc1ncnc2sc(-c3ccccc3)cc12)C(C)C	-8	1	x	10	4	-10	x	i
O=C(O)c1cc(-c2ccc(-c3ccc(F)cc3)o2)nc2ccccc12	x	x	-12	-23	-6	8	-42	i

An excerpt from above in order of formula weight, smallest number first:
SMILES	PABP FP inh	eIF4H inh	CSC inhib	Yeast UUG start	MT1-MMP act inh	MT1-MMP act inh RFP	Env fusion inh	Rce1 inhib	others
CCOc1ccc(C(=O)NCC(C)C)cc1	-6	-6	8	1	6	-4	-30	i
COc1ccc(-c2csc(-c3[nH]cnc3N)n2)cc1	-15	16	-7	x	-3	4	-8	i
O=C(Nc1ccc(N2CCCCC2)cc1)c1ccc(F)cc1	-4	-2	-6	-10	-1	7	x	i
O=C(O)C1C2C=CC(O2)C1C(=O)Nc1cccc(C(F)(F)F)c1 (stereo not given)	-3	-7	-1	-15	-5	0	-11	i
O=C(O)c1cc(-c2ccc(-c3ccc(F)cc3)o2)nc2ccccc12	x	x	-12	-23	-6	8	-42	i
Cc1cccc(N2CCN(C(=S)NCCc3ccccc3)CC2)c1C	16	5	-4	-22	28	-5	-48	i
COc1ccccc1CNC(=O)CN1C(=O)NC2(CCC(C)CC2)C1=O (stereo not given)	x	x	-8	-16	2	3	12	x
CC(C)N(C(=O)CSc1ncnc2sc(-c3ccccc3)cc12)C(C)C	-8	1	x	10	4	-10	x	i
O=[N+]([O-])c1cccc(/C([O-])=C(/C(=S)Nc2cccc3ccccc23)[n+]2ccccc2)c1	-5	-2	x	x	4	2	-6	i
CC(Sc1nc(N2CCOCC2)nc(N2CCOCC2)n1)C(=O)Nc1ccccc1 (stereo not given)	-10	-3	-4	x	-6	-4	-57	i
Cc1ccc(-n2[nH]c(C)c(C=Nc3ccc(S(=O)(=O)Nc4nccs4)cc3)c2=O)cc1C	-15	2	-8	x	1	-1	x	i
COc1cccc(N2CCN(C(=O)c3ccc(CS(=O)Cc4ccccc4Cl)o3)CC2)c1 (stereo not given)	8	7	-7	11	2	-2	-3	i

(cont.)
SMILES	PABP FP inh	eIF4H inh	CSC inhib	Yeast UUG start	MT1-MMP act inh	MT1-MMP act inh RFP	Env fusion inh	Rce1 inhib	others
CSc1cccc(NC(=S)NC(=O)CCc2ccccc2)c1	0	11	36	-15	5	3	-3	i
COc1ccccc1OCCCC(=O)Nc1nnc(C2CCCO2)s1 (stereo not given)	4	-3	-22	-15	1	-5	1	i
Cc1c(C(=O)Nc2ccccc2F)sc2ncn(CC(=O)N3CCCCC3)c(=O)c12	6	-17	-1	4	0	-2	-1	i
O=C1CSc2ccccc2N1	x	x	x	-13	-1	4	-4	x
O=C(COC(=O)c1cc([N+](=O)[O-])ccc1NCCO)Nc1cccnc1Cl	x	x	-14	-22	3	6	7	x
CC(C)C(NC(N)=O)C(=O)NC1CCCCC1 (stereo not given)	-4	-1	11	x	x	x	x	i
O=C(CCc1ccc(S(=O)(=O)N2CCOCC2)cc1)N/N=C/c1ccc(F)cc1F	-2	-6	-4	-15	2	-1	22	i
CCOC(=O)c1c(C)oc2c1c(C(c1ccncc1)N1CCOCC1)c(O)c1ccccc12 (stereo not given)	16	4	-13	x	x	x	x	x
Cn1cc(Br)c(C(=O)NC2CCCCC2)n1	4	-1	-6	-8	-1	1	x	i
CCN(CC)C(=O)N1CCC(NC(=O)c2ccc(C(C)(C)C)cc2)CC1	-10	-4	-2	14	-1	-5	1	i

An unsorted share of the library; overall some 2.9% were active at least once.
